# From PubChem BioAssay
# SARS PLpro yeast: SARS-CoV PLP inhibition in yeast | S. cerevisiae expressing SARS-CoV PLpro, growth rescue; control for the full effect not named in the record | Potency, µM (doses to about 32.9 µM), for inactives: at the highest dose activity, positive = growth rescue | 330,000 tested, 0.19% active | AID 485353; active means well fitted rising curve with a large enough effect; inconclusive means small, poorly fitted or top-dose-only effect; inactive means no such curve, though single readings can be large or run the other way; further: 0% is about no effect; nearly all actives have a fitted effect of over 55% in size; growth read by luminescence after 48 h
# RE007 growth inh: less growth of the S. pombe RE007 Vpr strain; 360,000 tested, 0.21% active; Potency, µM (titrated, usually from 92.2 µM), without a hit: at the top dose activity change, negative = less growth; S. pombe RE007 Vpr strain, BacTiter-Glo ATP luminescence, 24 h; control for the full effect not named in the record; active = well fitted falling curve with a large enough effect; inconclusive = small, poorly fitted or top-dose-only effect; inactive = no such curve, though single readings can be large or run the other way;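 further: on the % scale 0 is the no-effect control and ±100 the full control effect; nearly all actives have a fitted effect of over 50% in size; the assay follows cell death caused by Vpr and the record does not say whether a fall means rescue or toxicity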
#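 Fission yeast RE007 carrying one integrated HIV-1 vpr copy, seeded at OD 0.01 in PMG+AL medium with 23 nL pinned compound. Grown 24 h at 30 degrees; viability read by BacTiter-Glo luminescence after 5 min.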
# StopGo reporter: lowers the luciferase signal of an FMDV 2A StopGo reporter; Potency, µM (highest dose often 57.9 µM), without a hit: at the highest dose signal change, negative = less light; human cells with a luciferase reporter of 2A StopGo recoding; control for the full effect not named in the record; AID 1159524; 410,000 tested, 1.2% active; active = well fitted falling curve with a large enough effect; inconclusive = small, poorly fitted or top-dose-only effect; inactive = no such curve, though single readings can be large or run the other way; tested in HEK293T cells; further: on the % scale 0 is the no-effect control and ±100 the full control effect; nearly all actives have a fitted effect of over 45% in size; luciferase light after 4 h
# An asterisk follows results filed as active; ? = inconclusive; & = joins results of further samples; [ ] = remark or other dose. Potency means the concentration at half of the fitted maximal effect.
# Values run as follows: RE007 growth inh	SARS PLpro yeast	StopGo reporter
> COC(=O)[C@]1(Cc2ccccc2)N[C@H](CN(C)C(=O)C2CCCCC2)[C@@H]2C(=O)N(Cc3ccccc3)C(=O)[C@@H]21
→ -18%	0%	?
> COc1ccc(C(=O)OCC(=O)c2c(N)n(C)c(=O)n(C)c2=O)c(OC)c1OC
→ -2%	2%	16%
> O=C(c1cc(-c2cccc3ccccc23)nc2ccccc12)N1CCN(CCO)CC1
→ 9%	-2%	-17%
> Cc1ccc(S(=O)(=O)N2[C@@H](c3cccc(Cl)c3)C(C(=O)O)=CC[C@H]2c2ccc(Cl)c(Cl)c2)cc1
→ 9%	-2%	-12%
> COC(=O)[C@@]1(C)[C@H]2C(=O)N(C)C(=O)[C@H]2[C@H]2CN(C)C(=NC3CCCCC3)N21
→ -1%	0%	-19%
> Cc1ccc(Sc2ccc(S(=O)(=O)Nc3ccc(C(=O)O)cc3)cc2)cc1C
→ -8%	-10%	-16%
> COc1ccc2cc(C3NC(=O)c4ccccc4N3)c(Cl)nc2c1 (configuration not stated)
→ -1%	1%	0%
> O=C(N/N=C/c1c(Cl)cccc1Cl)c1ccc(-n2cnnn2)cc1
→ -6%	2%	8%
> CCN(CC(=O)Nc1ccc(OC)cc1)CC(=O)Nc1sc2c(c1C(=O)OC)CCCC2
→ -23%	-4%	-7%
> COC(=O)c1ccc(NC(=O)COC(=O)C2=NN(c3ccccc3)C(=O)CC2)cc1
→ 4%	0%	-5%
> COc1ccc(Cl)cc1C(=O)NNC(=S)NC(=O)/C=C/c1ccco1
→ -2%	1%	-1%
> COc1ccccc1C1=NC(c2ccc(C)cc2)N=C1C (configuration not stated)
→ -14%	-14%	30%[activator]
> COc1ccc(OC)c(S(=O)(=O)NCCCN2CCOCC2)c1
→ 0%	0%	13%
> CC(C)CC1Nc2ncnc(N3CCN(c4ccccn4)CC3)c2N(Cc2ccc(Br)cc2)C1=O (configuration not stated)
→ 3%&-8%	3%	-15%&0%
> COc1ccc(NC(=O)CCc2ccccc2)cc1S(=O)(=O)N1CCOCC1
→ 8%	-2%	-5%
> Cc1ccc2c(c1)[C@H]1[C@H](CO2)[C@H](c2ccccc2)[C@]2(C)C(=O)Nc3cc(F)c(F)cc3C(=O)N12
→ -7%	-14%	?
> CC1(C)Cc2cccc(OCC(=O)OCC(=O)c3ccccc3)c2O1
→ 2%	-4%	-22%
> CC(C)(C)OC(=O)C[C@H]1C/C=C\C[C@@H](CC(=O)N[C@H](CO)Cc2ccccc2)C(=O)NC[C@H](c2ccccc2)OC1=O
→ -2%	4%	-28%
> CCOC(=O)[C@@H]1[C@H]2COc3cc(OC)ccc3[C@@H]2N2C(=O)N(c3ccc(F)cc3)C(=O)[C@@]12C
→ -3%	1%	-18%
> O=C(COC(=O)/C=C/c1cccc(Br)c1)NC1CCCCCC1
→ -3%	-3%	-18%
> CC(=O)c1cccc(NCC(=O)N2CCN(S(=O)(=O)c3ccccc3)CC2)c1
→ -27%	8%[6.58 µM]	-6%
> C[C@H](CO)N1C[C@H](C)[C@@H](CN(C)S(=O)(=O)c2ccccc2)Oc2ccc(NC(=O)CCC(F)(F)F)cc2C1=O
→ -3%	9%	0%
> O=C(NN1C(=O)C2C(c3ccccc3)C=CC(c3ccccc3)C2C1=O)c1ccncc1 (configuration not stated)
→ 9%	2%	-12%
> COC(=O)c1cccnc1-n1c(=O)c2cccnc2n(CC(=O)Nc2ccc(Br)cc2)c1=O
→ -13%	-2%	-11%
> Cn1c(-c2ccsc2)c(-c2cccs2)c2cc(Br)ccc21
→ -4%	1%	-11%
> Cc1c(NC(=O)c2cccc(NC(=O)Cc3ccccc3F)c2)c(=O)n(-c2ccccc2)n1C
→ 0%	1%	-1%
> COc1cc(OC)cc(C(=O)N[C@H](C(=O)OCC(=O)Nc2sccc2C#N)C(C)C)c1
→ 8%	-1%	-22%
> C=CCn1c(SCC(=O)Nc2ccc(C(=O)O)cc2)nc2sc(C)c(C)c2c1=O
→ 4%	0%	-18%
> CCCCCCN(C(=O)CCCN1C(=O)NC(c2ccc([N+](=O)[O-])cc2)C(C(=O)OCc2ccccc2)=C1C)C(C)C(=O)NCCCC (configuration not stated)
→ -9%	?	-25%
> O=C(CSc1ncccn1)N1CCCCCC1
→ 4%	-43%	1%
> O=C(Cc1ccc(Cl)cc1)Nc1cccc(S(=O)(=O)N2CCCCC2)c1
→ 5%	0%	11%
> CCc1nc2c(s1)CCc1onc(-c3ccc(Cl)cc3)c1-2
→ -25%	-2%	-14%
> COc1ccccc1OCCNC(=O)CCNC(=O)c1ccccc1OC
→ 3%	1%	-4%
> CNS(=O)(=O)c1ccc2c(c1)oc(=O)c1cc(S(=O)(=O)NC)ccc12
→ 12%	0%	-16%
> CC(C)=CCC/C(C)=C/CNC(=O)CC1C[C@H](C(=O)N2CCOCC2)[C@@]2(C)c3[nH]c4ccccc4c3CCN2C1=O (some centres not stated)
→ 2%	0%	?
> CCN(C[C@H]1N[C@@](Cc2ccccc2)(C(=O)OC)[C@H]2C(=O)N(Cc3ccccc3)C(=O)[C@@H]12)S(=O)(=O)c1ccc(OC)cc1
→ 8%	5%	?
> C[C@H](CO)N1C[C@H](C)[C@@H](CN(C)C(=O)NC2CCCCC2)Oc2ccc(NC(=O)NC3CCCCC3)cc2C1=O
→ 8%	15%	-9%
> Cc1ccc(S(=O)(=O)N2CCC(C(=O)Nc3ncccc3O)CC2)cc1
→ -15%	-6%[6.58 µM]	0%
> Cn1cc(C(=O)OCC(=O)NC2CCCCC2)c2ccccc21
→ 5%	2%	-14%
> COc1cccc(NC(=O)CN(C)S(=O)(=O)/C=C/c2ccccc2)c1
→ -12%	6%	5%
> CC(=O)N=Cc1c(C)c(C#N)c(=O)n(C)c1O
→ -3%	-2%	6%
> COC(=O)c1c(-c2ccc(SC)cc2)sc2ccc(OC)cc12
→ 42%	-5%	-20%
> CN(C(=O)c1ccc(Cl)cc1)C1CCS(=O)(=O)C1 (configuration not stated)
→ 13%	-7%	1%
> Cc1ccn2cc(-c3ccc4c(c3)NC(=O)CO4)nc2c1
→ -5%	-2%	0%
> O=C(NCc1ccccn1)c1ccc(NS(=O)(=O)c2cccc([N+](=O)[O-])c2)cc1
→ 1%	-5%	-1%
> Cc1cnc(C(=O)N2CCN(S(=O)(=O)c3ccc(F)c(F)c3F)CC2)cn1
→ 15%	-3%	-14%
> COc1ccccc1N1C(=O)C2C(c3ccc(F)cc3)NN(C(=O)c3ccc(C)cc3)C2C1=O (configuration not stated)
→ 9%	0%	0%
> COc1ccccc1CN(C)C(=O)c1ccccc1SCC(=O)N1CCCC1
→ -15%	5%	63%[activator]
> CC(=O)NCCC(=O)Nc1cc(S(=O)(=O)N2CCCCC2)ccc1N1CCCCC1
→ -14%	2%	-17%
> O=C(CSc1ncnc2ccccc12)N1CCNC1=O
→ 3%	3%	44%[activator]

# More compounds
# Values run as follows: RE007 growth inh	SARS PLpro yeast	StopGo reporter
> COc1ccc([C@@H]2[C@@H]3C(=O)N(C(C)(C)C)C(=O)[C@@H]3[C@]3(CC(C)C)C(=O)N(c4cccc(F)c4)C(=O)N23)cc1
→ -7%	-5%	-6%
> CCCCN(C(=O)C1=NN(c2ccccc2)C(=O)CC1)c1c(N)n(CC(C)C)c(=O)[nH]c1=O
→ 1%	0%	-20%
> COc1ccc(NC(=O)CSCC(=O)Nc2ccc(S(=O)(=O)N3CCOCC3)cc2)cc1
→ -7%	2%	0%
> CCc1nnc(NC(=O)CSc2nnc(CNC(=O)c3cc(OC)c(OC)c(OC)c3)o2)s1
→ 4%	-1%	-6%
> N#Cc1ccccc1S(=O)(=O)N1CCN(Cc2c(O)ccc3ccccc23)CC1
→ -24%	2%	-21%
> CC[C@@H](C)[C@@H]1CN([C@@H](C)CN2CCC[C@H]2CN2C(N)=NC[C@H]2CC(C)C)C(=N)N1CCc1ccc(Cl)c(Cl)c1
→ 12%	-12%	-9%
> CC[C@@]1(C(=O)OC)N[C@H](CN(C)S(=O)(=O)c2ccc(C(C)(C)C)cc2)[C@@H]2C(=O)N(Cc3ccccc3)C(=O)[C@@H]21
→ 7%	7%	-5%
> CC(CCN1CCN=C1N(C)C)c1ccccc1 (configuration not stated)
→ -5%	-1%	1%
> Cc1nn(CCCC(=O)Nc2nccs2)c(C)c1[N+](=O)[O-]
→ -17%	0%	-12%
> CCN1C(=O)[C@H]2[C@@H](c3ccc(-c4ccc(F)cc4)c(OC)c3)N[C@@](Cc3ccccc3)(C(=O)OC)[C@H]2C1=O
→ -8%	-1%	-23%
> COc1ccc([C@H]2CC(=O)C=C(c3cccc(NC(C)=O)c3)C2)cc1
→ 6%	-2%	24%
> C[C@@H]1COC(=O)[C@@H](Cc2ccc(F)cc2)C/C=C\C[C@H](CC(=O)N(CCO)Cc2ccccc2)C(=O)N1
→ -9%	1%	?
> Cc1c(C(=O)NCc2ccccc2CN2CCCC2)oc2c(F)cccc12
→ -8%	-38%	0%
> O=C(CCCn1c(=O)oc2ccccc21)NNC(=O)COc1ccc(F)cc1
→ -8%	-2%	-2%
> Cc1cn([C@H]2C[C@H](O)[C@@H](CCC(=O)NCCCn3ccnc3)O2)c(=O)[nH]c1=O
→ 11%	-1%	-6%
> O=C(/C=C/c1cccc(Cl)c1)NNC(=O)c1ccncc1
→ 2%	0%	-23%
> CCN(CC(=O)Nc1ccc(OC)cc1)C(=O)CSCc1ccc(C)cc1
→ 4%	0%	-12%
> O=C(Cc1c[nH]c2ccccc12)N1CCN(S(=O)(=O)c2cccc(Cl)c2Cl)CC1
→ -6%	1%	?
> Cc1cc(C)c2sc(N(CCCN(C)C)C(=O)CN3C(=O)c4ccccc4C3=O)nc2c1
→ -1%	-2%	-19%
> CCOC(=O)[C@H]1[C@H]2COc3ccccc3[C@@H]2N2C(=O)c3cc(Br)ccc3NC(=O)[C@@]12C
→ 14%	4%	-1%

# Next part, starting with the last 6 of the part before.
# Values run as follows: RE007 growth inh	SARS PLpro yeast	StopGo reporter
> Cc1cn([C@H]2C[C@H](O)[C@@H](CCC(=O)NCCCn3ccnc3)O2)c(=O)[nH]c1=O
→ 11%	-1%	-6%
> O=C(/C=C/c1cccc(Cl)c1)NNC(=O)c1ccncc1
→ 2%	0%	-23%
> CCN(CC(=O)Nc1ccc(OC)cc1)C(=O)CSCc1ccc(C)cc1
→ 4%	0%	-12%
> O=C(Cc1c[nH]c2ccccc12)N1CCN(S(=O)(=O)c2cccc(Cl)c2Cl)CC1
→ -6%	1%	?
> Cc1cc(C)c2sc(N(CCCN(C)C)C(=O)CN3C(=O)c4ccccc4C3=O)nc2c1
→ -1%	-2%	-19%
> CCOC(=O)[C@H]1[C@H]2COc3ccccc3[C@@H]2N2C(=O)c3cc(Br)ccc3NC(=O)[C@@]12C
→ 14%	4%	-1%
> Cn1c(SCC(=O)Nc2ccc3c(c2)OCO3)nnc1C(F)(F)F
→ -8%	2%	23%
> CC1CCCN(C(=O)COC(=O)CNC(=O)c2sc3ccccc3c2Cl)C1 (configuration not stated)
→ 1%	-3%	-12%
> O=C(CSc1nncs1)Nc1ccc2c(c1)OCO2
→ -1%	0%	34%[activator]
> Cc1cccc(-n2c(Cc3cc(=O)[nH]c(=O)[nH]3)nnc2SCC(=O)Nc2cccc(C(F)(F)F)c2)c1
→ 3%	3%	2%
> CN(Cc1cccs1)C(=O)CCNS(=O)(=O)c1ccc(Br)cc1
→ -16%	23%	9%
> [O-]/[N+](=C/c1ccccc1)c1ccccc1
→ -1%	-3%	68%[activator]
> O=C(NCC(=O)N1CCN(C/C=C/c2ccccc2)CC1)c1ccc(Br)cc1
→ -14%	2%	?
> CCN(CC(=O)Nc1ccc2c(c1)OCCO2)C(=O)CCc1ccccc1Cl
→ -6%	1%	-14%
> CCOC(=O)c1ccc(-n2c(CN3CCN(CC)CC3)nc3ccc([N+](=O)[O-])cc3c2=O)cc1
→ 6%	3%	-3%
> O=C(COC(=O)c1cc[n+]([O-])cc1)Nc1ccc(Br)cc1
→ 12%	3%	-9%
> S=C(c1c[nH]c2ccc(Br)cc12)N1CCOCC1
→ 15%	0%	0%
> O=C(COC(=O)CN1C(=O)C2CCCCC2C1=O)Nc1c(Cl)cccc1Cl (configuration not stated)
→ 9%	3%	5%
> CC(NC(=O)c1ccc2c(c1)OCO2)c1cccc(C(F)(F)F)c1 (configuration not stated)
→ -7%	2%	-10%
> Cc1ccc(OCC(=O)OCC(=O)NC2CC2)cc1C
→ 29%	3%	0%

# An excerpt; rates above refer to the full screens.
